Assay outcomes deposited in PubChem BioAssay by National Center for Advancing Translational Sciences (NCATS).
Vaccinia Venus: vaccinia inhibition (Venus reporter) | Vaccinia virus Venus reporter expression, fluorescence | hit rate 0.46% among 330,000 | Potency, µM (highest dose often 36.5 µM), for the others: at the highest dose activity change, negative = inhibition, usual class: inhibitors | AID 720580; active means well fitted inhibition curve with a large enough effect; inconclusive means small, poorly fitted or top-dose-only effect; inactive means no such curve, though single readings can be large or run the other way; tested in A549 cells; further: nearly all actives have a fitted effect of over 30% in size; inactives centre near -10
VACV mCherry inh: vaccinia inhibition (mCherry reporter) | Vaccinia virus mCherry reporter infection, fluorescence; about a quarter of the inactives have no number | Potency, µM (top dose mostly 36.5 µM), without a hit: at the top dose activity change, negative = inhibition, hits mostly inhibitors | hit rate 0.63% among 310,000; active = well fitted inhibition curve with a large enough effect; inconclusive = small, poorly fitted or top-dose-only effect; inactive = no such curve, though single readings can be large or run the other way; tested in A549 cells; further: nearly all actives have a fitted effect of over 35% in size; inactives centre near -10
The depositor's hits bear a star; i = inactive; ? = inconclusive; . = no result given; & = joins results of further samples; [ ] = remark or other dose. On the % scale 0 is the no-effect control and ±100 the full control effect; potency means the concentration at half of the fitted maximal effect. An unsorted share of the library; about 0.82% have a hit in one of these screens.

Values run as follows: Vaccinia Venus, VACV mCherry inh
#1 Nc1cc(N)nc(SCc2ccc(Cl)cc2)n1
  -16%, -1%
#2 O=c1c2ccccc2nc2n1C1(CCCCC1)Cc1ccccc1-2
  -13%, -14%
#3 O=C(Nc1cccc(S(=O)(=O)Nc2ccccc2Cl)c1)c1ccc(Cl)nc1
  -25%, ?
#4 Cc1cccc(C)c1NC(=O)C(c1ccccc1)N1CCN(C/C=C/c2ccccc2)CC1 (configuration not stated)
  -9%, i
#5 O=c1c2nncn2ccn1-c1ccc(F)c(F)c1
  5%, -5%
#6 COc1ccc(C)c2sc(N(Cc3cccnc3)C(C)=O)nc12
  -12%, -14%
#7 O=C1c2ccc([N+](=O)[O-])cc2C(=O)N1CNc1ccccn1
  -5%, 0%
#8 CN(C)S(=O)(=O)c1cccc(NC(=O)c2cc3c(cc2Cl)N2CCCCCC2=NS3(=O)=O)c1
  -5%, -1%
#9 COc1ccc(Cc2nnc(SCC(=O)N3CCc4ccccc4C3)o2)cc1
  -16%, -6%
#10 COc1ccc(CNC(=O)c2ccc(CN3C(=O)C(C)=C(c4ccc(C)cc4)S3(=O)=O)cc2)cc1
  -15%, i
#11 O=C(COc1ccc(F)c(Cl)c1)c1ccc[nH]1
  -17%, ?
#12 CC(C)C1N=C2c3ccccc3N=C(SCC(=O)c3ccc(O)c(O)c3)N2C1=O (configuration not stated)
  ?, 11µM*
#13 Cn1c(=O)c2cc(S(=O)(=O)NCCC(=O)Nc3ccc(F)cc3F)ccc2n(C)c1=O
  -6%, -10%
#14 c1cncc(CNCc2ccco2)c1
  -7%, -12%
#15 CC(Sc1nc2ccccc2c(=O)n1CCCN1CCOCC1)C(=O)N1CCc2ccccc21 (configuration not stated)
  -3%, 11%

The closing 4 entries of the part above come first, to join the parts:
Values run as follows: Vaccinia Venus, VACV mCherry inh
#12 CC(C)C1N=C2c3ccccc3N=C(SCC(=O)c3ccc(O)c(O)c3)N2C1=O (configuration not stated)
  ?, 11µM*
#13 Cn1c(=O)c2cc(S(=O)(=O)NCCC(=O)Nc3ccc(F)cc3F)ccc2n(C)c1=O
  -6%, -10%
#14 c1cncc(CNCc2ccco2)c1
  -7%, -12%
#15 CC(Sc1nc2ccccc2c(=O)n1CCCN1CCOCC1)C(=O)N1CCc2ccccc21 (configuration not stated)
  -3%, 11%
#16 N#Cc1ccccc1OCC(=O)NNC(=O)CCNC(=O)c1ccccc1
  -2%, -2%
#17 O=C(Nc1ccc(NC(=O)C2CCCCC2)nc1)c1cccs1
  -12%, i
#18 COc1ccc(C2CCCN2C(=S)Nc2cccc(Cl)c2)cc1OC (configuration not stated)
  0%, -4%
#19 CCOC(=O)CN(C(=O)CSc1nnc(COc2ccc(OC)cc2)n1CC)c1ccccc1
  3%, -13%
#20 Cc1noc(C)c1NC(=O)N(C)C[C@H]1Oc2c(NC(=O)Nc3ccc(C(F)(F)F)cc3)cccc2C(=O)N([C@H](C)CO)C[C@@H]1C
  -26%, i
#21 CCOC(=O)C1=CN(Cc2cccc(-c3ccc(Cl)nc3)c2)S(=O)(=O)N(C)C1C (configuration not stated)
  -18%, -11%
#22 COc1cc(NC(=O)CN2C(=O)C(c3ccc(Cl)cc3)=NC23CCCCC3)cc(OC)c1
  -18%, -22%
#23 CC(C)N1CN(c2ccccc2)C(=S)N(c2ccccc2)C1
  -10%[7.34 µM], -4%[7.34 µM]
#24 Cc1ccc(-c2n[nH]c3c2CCC3)cc1
  -15%, -29%
#25 Cc1ccc(NC(=O)CSc2nc3ccccc3nc2N2CCOCC2)cc1
  -9%&-24%, 15%&-27%
#26 COc1ccc(CCNC(=O)c2ccc3nc(N4CCCCC4)sc3c2)cc1OC
  -7%, i
#27 CCCNC(=O)C1=C(C)C(=O)OC12CCC(C)CC2 (configuration not stated)
  -20%, i
#28 O=C(Nc1c(Cl)cccc1Cl)c1cccc2c1C(=O)N(C1CCCCC1)C2
  -11%, -25%
#29 COC(=O)c1ccc(NC(=O)c2c(NCc3ccc(OC)c(OC)c3)sc3c2CCCC3)cc1
  -20%, -7%
#30 CN(C(=O)CN1CCN(c2cnn(-c3ccccc3)c(=O)c2Cl)CC1)C1CCS(=O)(=O)C1 (configuration not stated)
  -8%, -11%
#31 CC(C)C[C@@H]1Cc2[nH][nH]c(=O)c2[C@H](c2ccc(Cl)cc2)O1
  -12%, 15%
#32 CC(C)NC1=C(Cl)C(=O)c2ccccc2C1=O
  ?, ?
#33 CCCCN(CCCC)S(=O)(=O)c1c(C)[nH]c(=O)[nH]c1=O
  -7%, -10%
#34 CC[C@H](C)[C@@H]1OC(=O)[C@@H](C)[C@@H](CC)NC(=O)[C@H](C)N(C)C(=O)C(C)(C)C(=O)C(C)NC(=O)[C@H](Cc2ccccc2)N(C)C(=O)[C@H](C(C)C)N(C)C(=O)CNC(=O)[C@H](CC(C)C)N(C)C(=O)CNC1=O (some centres not stated)
  2.2µM*, 2µM*
#35 NC(=O)CSc1ncc(-c2ccccc2)[nH]1
  -3%, -8%
#36 Cn1c(SCc2ccc(F)cc2)nc2ccc(C(=O)NCc3ccccc3)cc21
  -20%, -21%
#37 CCN(CC)c1nc2c(C)cccn2c(=O)c1C=C1C(=O)NC(=O)NC1=O
  -15%, i
#38 O=C(c1ccc(Cl)cc1)N1CCN(c2ccc([N+](=O)[O-])c(NCc3cccnc3)c2)CC1
  ?, -25%
#39 CCOC(=O)c1c(CN2CCOCC2)n(-c2ccccc2)c2cc(Br)c(O)c(CN(C)C)c12
  -6%, .
#40 COc1ccccc1CNc1nc(-c2ccccc2CN(C)C)nc2ccccc12
  -27%, -30%
#41 Cc1cccc(CSc2nnc(CCCCCN)o2)c1
  -3%, -2%
#42 Cc1nc(SCc2ccc(O)c([N+](=O)[O-])c2)n[nH]1
  -10%, -14%
#43 CCCNC(=O)c1[nH]c(C)c(C(C)=O)c1C
  -16%, i
#44 Cc1noc(C)c1NC(=O)N(C)C[C@H]1Oc2ccc(NC(=O)NC(C)C)cc2C(=O)N([C@H](C)CO)C[C@H]1C
  -12%, i
#45 COC(=O)CCCC(=O)OC
  -3%, -8%
#46 CC1CCC2(CC1)NC(=O)N(CC(=O)N1c3ccccc3CC1C)C2=O (configuration not stated)
  -22%, -14%
#47 CCOc1ccc(C(=O)Nc2cc(-c3ccccc3)no2)cc1
  -12%, -5%
#48 CCOC(=O)C[C@H]1c2ccc(C(F)(F)F)cc2S(=O)(=O)N1c1cccc(OC)c1
  -18%&-13%, i
#49 Cc1ccc(NC(=O)c2ccn(C)n2)c(Br)c1
  -6%, i
#50 COc1ccccc1NC(=O)COc1ccc(Br)cc1CNC1CCCC1
  -6%, -19%
#51 CC(=O)Nc1ccc(-c2nc(C)c(C(C)=O)n2O)cc1
  -17%, -10%
#52 COC(=O)CCSc1cc(NCCOC(C)=O)c([N+](=O)[O-])c2nonc12
  -17%&-9%, -7%
#53 COc1ccc2cc(C)c3nnc(SCC(=O)Nc4cc(OC)c(OC)cc4C(=O)O)n3c2c1
  -4%, -1%
#54 O=C(Nc1ccc(F)cc1)[C@H](Cc1ccccc1)N1Cc2ccccc2C1=O
  1%, 2%
#55 CCC(CC)NC(=O)CO/N=C/c1ccccc1OC(F)F
  -12%, -4%
#56 COc1cccc(CN2CC(C(=O)NCc3cccc(N4CCCC4)c3)CCC2=O)c1 (configuration not stated)
  -10%, ?
#57 COc1ccc(NC(=O)c2oc3ccccc3c2NC(=O)c2ccc(OC)c(OC)c2)c(OC)c1
  2%, -22%
#58 C=CCN1C(=O)C(Cc2ccccc2)S/C1=N/N=C/c1cccs1 (configuration not stated)
  -7%, -14%
#59 CCCc1cnc(N2CCN(C(=O)c3c(-c4ccccc4)noc3C)CC2)nc1
  -20%, i
#60 Cc1cccc(-c2noc(-c3ccc(NCc4ccco4)c([N+](=O)[O-])c3)n2)c1
  -4%, -13%
#61 Cc1sc2ncn(CC(=O)Nc3c(F)cccc3F)c(=O)c2c1S(=O)(=O)N1CCC(C)CC1
  1%, -1%
#62 CC1OC(OCC2OC(Oc3c(-c4ccc(O)c(O)c4)oc4cc(O)cc(O)c4c3=O)C(O)C(O)C2O)[C@@H](O)C(O)C1O (some centres not stated)
  -13%, -8%
#63 CN(C)S(=O)(=O)c1ccc(Cl)c(NC(=O)COC(=O)/C=C/c2ccc3ccccc3n2)c1
  -16%, -20%
#64 CCOC(=O)Cc1csc(NC(=O)CCN2C(=O)c3cccc([N+](=O)[O-])c3C2=O)n1
  6%, 2%
#65 O=c1[nH]c2ccc(S(=O)(=O)N3CCC(Cc4ccccc4)CC3)cc2o1
  ?, -8%
#66 CCC1CC(CSC(=N)N)OC1=O (configuration not stated)
  -16%, -13%
#67 O=C(N/N=C/c1ccc(O)cc1)c1ccc(COc2cc(Cl)ccc2Cl)o1
  ?, .
#68 CCc1nc2scc(-c3ccc(C)cc3)c2c(=O)n1N
  -24%, -13%
#69 O=C(Nc1ccn(Cc2c(F)c(F)cc(F)c2F)n1)c1ccc(COc2ccccc2Cl)cc1
  ?, -24%
#70 COc1cc(-n2c(C)nc3cc(C(=O)NCC4CCCO4)ccc32)cc(OC)c1OC (configuration not stated)
  17%[7.34 µM], -3%[7.34 µM]
#71 CN(C)S(=O)(=O)N1CCN(S(=O)(=O)c2ccc(F)cc2)CC1
  -7%, i
#72 COc1ccc(OCCN(C)CC(=O)Nc2c(C)cccc2C)cc1
  3%, 0%
#73 COc1ccc2[nH]c3c(c(=O)c2c1)CCCC3
  -2%, i
#74 Cc1cccc(N2CN(Cc3cccnc3)CNC2=S)c1
  -7%, -2%
#75 Cc1cccc(NC(=O)Cn2c(=O)oc3ccccc32)n1
  -9%, 0%

Following part.
Values run as follows: Vaccinia Venus, VACV mCherry inh
#76 O=C(NCCS(=O)(=O)N1CCN(c2ccccc2F)CC1)c1ccccc1C(F)(F)F
  -13%, -10%
#77 COc1ccc(CC(=O)NCC(c2ccc(Cl)cc2)N2CCOCC2)cc1 (configuration not stated)
  -4%, -10%
#78 CC(=O)NC(c1ccc(C)cc1)c1cc(Cl)c2cccnc2c1O (configuration not stated)
  ?, ?
#79 O=C(NCc1ccco1)C1CCN(C(=O)N2CCOc3ccc(Cl)cc32)CC1
  -9%, -11%
#80 COCCCNc1oc(-c2ccccc2F)nc1C#N
  -3%, -4%
#81 CC(=O)N1CCc2cc(C(=O)CN3CCN(C(=O)c4ccco4)CC3)ccc21
  -7%, i
#82 CCCCC1=CC2=C(c3ccco3)C(=O)C(C)(OC(=O)c3ccc(OC)cc3)C(=O)C2=CN1c1ccc(OC)cc1 (configuration not stated)
  0%, -10%
#83 COc1ccc2[nH]c(=O)c(CN(C(C)=O)C3CCCCC3)cc2c1
  0%, -11%
#84 COc1ccccc1/C=N/NC(=S)Nc1cccnc1
  -7%, -7%
#85 O=C(Nc1nc(-c2ccc3c(c2)Cc2ccccc2-3)cs1)c1ccccc1
  -9%, i
#86 COc1ccc(NC(=O)CCC(=O)Nc2nnc(C(C)C)s2)cc1Cl
  -5%[7.34 µM], i[7.34 µM]

Of the compounds above, these have fluorine.
Values run as follows: Vaccinia Venus, VACV mCherry inh
#5 O=c1c2nncn2ccn1-c1ccc(F)c(F)c1
  5%, -5%
#11 O=C(COc1ccc(F)c(Cl)c1)c1ccc[nH]1
  -17%, ?
#13 Cn1c(=O)c2cc(S(=O)(=O)NCCC(=O)Nc3ccc(F)cc3F)ccc2n(C)c1=O
  -6%, -10%
#20 Cc1noc(C)c1NC(=O)N(C)C[C@H]1Oc2c(NC(=O)Nc3ccc(C(F)(F)F)cc3)cccc2C(=O)N([C@H](C)CO)C[C@@H]1C
  -26%, i
#36 Cn1c(SCc2ccc(F)cc2)nc2ccc(C(=O)NCc3ccccc3)cc21
  -20%, -21%
#48 CCOC(=O)C[C@H]1c2ccc(C(F)(F)F)cc2S(=O)(=O)N1c1cccc(OC)c1
  -18%&-13%, i
#54 O=C(Nc1ccc(F)cc1)[C@H](Cc1ccccc1)N1Cc2ccccc2C1=O
  1%, 2%
#55 CCC(CC)NC(=O)CO/N=C/c1ccccc1OC(F)F
  -12%, -4%
#61 Cc1sc2ncn(CC(=O)Nc3c(F)cccc3F)c(=O)c2c1S(=O)(=O)N1CCC(C)CC1
  1%, -1%
#69 O=C(Nc1ccn(Cc2c(F)c(F)cc(F)c2F)n1)c1ccc(COc2ccccc2Cl)cc1
  ?, -24%
#71 CN(C)S(=O)(=O)N1CCN(S(=O)(=O)c2ccc(F)cc2)CC1
  -7%, i
#76 O=C(NCCS(=O)(=O)N1CCN(c2ccccc2F)CC1)c1ccccc1C(F)(F)F
  -13%, -10%
#80 COCCCNc1oc(-c2ccccc2F)nc1C#N
  -3%, -4%
